Compound activity: PubChem BioAssay, National Center for Advancing Translational Sciences (NCATS)
TRPV1 potentiator: HTS Assay for Compounds that Act as Potentiators of the Vanilloid Receptor 1 | 320,000 compounds, 0.02% hits | Transient receptor potential cation channel subfamily V member 1 (Homo sapiens), Q8NER1 | AID 540277, 2011 | TRPV1-expressing cells, Fluo-8 calcium influx, capsaicin EC20 potentiation; host cell line not named in the record; control for the full effect not named in the record | potentiation, % at 8.33 µM; active means potentiation above 80%; inconclusive means 30% to 80%; inactive means below 30%; also: 0% is about no effect
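Cells expressing TRPV1 were dye-loaded with Fluo-8 and read kinetically: 10 s baseline, 3 min after compound (agonist portion), then 2 min after EC20 capsaicin (allosteric enhancer portion). Calcium-bound dye fluorescence at 480/520 nm.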
Six1-Eya2 blk: qHTS Assay for Inhibitors of the Six1/Eya2 Interaction | AlphaScreen GST-Six1/His-Eya2 binding, biochemical; active compounds read low; control for the full effect not named in the record | Homeobox protein SIX1 (Homo sapiens) + Protein phosphatase EYA2 (Homo sapiens), … | activity change, % (concentration not given with the values) | AID 651725, 2012 | 360,000 compounds, 0.56% hits; in the data active = activity change below about -65%; inconclusive = about -30% to -65%; inactive = above about -30%; also: % is scaled to controls: 0 for no effect and ±100 for the full control effect
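Compounds are tested against tagged Six1 and Eya2 proteins bridged by glutathione donor and nickel acceptor beads; after a one-hour incubation at 37 °C without light, AlphaScreen emission is recorded.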
PINK1 modulator: A Quantitative High throughput Screen to Identify Chemical Modulators of PINK1 Expression; PINK1 immunofluorescence, high-content cytometry, 24 h; Potency, µM (doses to about 76.6 µM), for inactives: top-dose activation (PINK1 increase), most hits filed as activators; 410,000 compounds, 0.2% hits; AID 624263, 2012; active = well fitted activation curve with a large enough effect; inconclusive = small, poorly fitted or top-dose-only effect; inactive = flat fitted curve, though single readings scatter; cell line not stated here;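 also: potency is read from the fitted curve at half-maximal effect; % of control where 0% means no effect; nearly all actives have a fitted effect of over 65% in size; a mitochondrial uncoupler was the plate control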
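Fluorescence from anti-PINK1 antibody, together with nuclear and cell stains, was scanned on a laser-scanning cytometer. Before staining, stable-line cells were incubated 24 hours with compounds at 5 concentrations; primary antibody 12 h at 10 degrees C.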
D2 ag: Beta-Arrestin HTS for Positive Allosteric Modulators of the Human D2 Dopamine Receptor: Agonists; DiscoveRx PathHunter D2 beta-arrestin, luminescence, 90 min; 100% = 57 uM dopamine signal; activation, % (test concentration not listed); 360,000 compounds, 0.084% hits; AID 624465, 2012; in the data active = activation above about 40%; inconclusive = about 15% to 40%; inactive = below about 15%; also: compound concentration not given in the record; the text of the record calls up to 30% inactive
Target sequence (P14416 whole entry, looked up): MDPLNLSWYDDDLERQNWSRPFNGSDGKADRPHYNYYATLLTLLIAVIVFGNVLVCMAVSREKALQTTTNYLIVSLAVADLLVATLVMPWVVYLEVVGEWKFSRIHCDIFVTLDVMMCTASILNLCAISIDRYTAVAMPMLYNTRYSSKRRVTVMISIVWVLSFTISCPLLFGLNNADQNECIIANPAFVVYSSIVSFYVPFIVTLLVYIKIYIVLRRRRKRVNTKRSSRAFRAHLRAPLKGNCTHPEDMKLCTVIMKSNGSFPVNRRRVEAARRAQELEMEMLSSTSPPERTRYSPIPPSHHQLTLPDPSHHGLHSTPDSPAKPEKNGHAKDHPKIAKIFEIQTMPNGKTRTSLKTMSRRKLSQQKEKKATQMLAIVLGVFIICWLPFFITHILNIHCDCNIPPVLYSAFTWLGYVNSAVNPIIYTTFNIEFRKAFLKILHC
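DiscoveRx PathHunter D2 beta-arrestin cells (2,100/well) attached overnight, then compound-stimulated 90 min at 37 C in HBSS/10 mM HEPES/0.1% Tween-20 buffer; beta-galactosidase complementation read by luminescence after 1 h at ambient temperature. Dopamine 57 uM final (EC100) as control.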
Sfp PPTase inh: qHTS Assay for Inhibitors of Bacillus subtilis Sfp phosphopantetheinyl transferase (PPTase). Biochemical Sfp PPTase activity, qHTS. Potency, µM, for the others: max response, negative = inhibition, usual class: inhibitors. 310,000 compounds, 3.5% hits; active = well fitted inhibition curve with a large enough effect; inconclusive = small, poorly fitted or top-dose-only effect, or another doubt; inactive = no such curve, though single readings can be large or run the other way;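 also: the enzyme is Sfp with the accession as filed and its product quenches rhodamine fluorescence; potency is read from the fitted curve at half-maximal effect; 0% = enzyme reaction without inhibitor and -100% = no enzyme wells; top concentration of the series not given in the record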
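Sfp 15 nM + cpd, 15 min RT; start w/ rhodamine-CoA 5 uM, BHQ-2-YbbR 12.5 uM (final); 50 mM Hepes pH 7.6, 10 mM MgCl2, 0.01% NP-40, 0.01% BSA; read 525/598 nm at 0 and 30 min.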
D2 PAM: Beta-Arrestin HTS for Positive Allosteric Modulators of the Human D2 Dopamine Receptor: Potentiators. 360,000 compounds, 0.23% hits. D(2) dopamine receptor (Homo sapiens), P14416. potentiation, % (no concentration beside the values). DiscoveRx D2 beta-arrestin cells, luminescence, 90 min; 100% = 57 uM dopamine signal; active = potentiation of 50% or more; inconclusive = 30% to 50%; inactive = 30% or less;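 also: compound concentration not given in the record; tested on top of an EC20 dose of dopamine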
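PathHunter D2 cells, attached overnight at 37 deg C, received compound in DMSO plus dopamine at EC20 (50 nM final) for 90 min at 37 deg C. Beta-arrestin recruitment was read as luminescence after 1 h with detection reagent at ambient temperature.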
CtBP-E1A blk: qHTS Assay for Inhibitors of the CtBP/E1A Interaction | CtBP / adenovirus E1A interaction (AlphaScreen) | AlphaScreen GST-E1A/His-CtBP binding, 1536-well; active compounds read low; control for the full effect not named in the record | activity change, % (concentration not given with the values) | 340,000 compounds, 0.49% hits | AID 651724, 2012; in the data active means activity change below about -65%; inconclusive means about -30% to -65%; inactive means above about -30%; also: % is scaled to controls: 0 for no effect and ±100 for the full control effect
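Steps: dispense buffer (Tris pH 8.0, NaCl 300 mM, TCEP 1 mM, BSA, Tween 20); add 5X protein mix (GST-E1A, His-CtBP, 125 nM each); pin 23 nL compound; 2 h at 37 °C, dark; add 5X beads (50 ug/mL); 1 h; read.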
* marks the source's active call; other numbers are inactive results; ? = inconclusive; . = not tested or not shown; [ ] = remark or other dose. Rows are unselected (roughly 3.7% active in at least one column).

Structure,CtBP-E1A blk,PINK1 modulator,Sfp PPTase inh,D2 ag,Six1-Eya2 blk,D2 PAM,TRPV1 potentiator
O=C(Nc1nc(-c2ccccn2)cs1)c1ncc(Cl)c(Cl)c1Cl,-74*,-2.1%,-9%,3.0,?,10,25
Cc1ccc(-c2c(C(=O)Nc3ccccc3C)c(C)[nH]c(=S)c2C#N)o1,.,2.5%,2.8µM*,-2.6,0,-10,-5
COc1cc(CNCCSc2nnnn2C)cc(OC)c1OC,0,3.1%[38.3 µM],-11%,1.8,6,1,10
COc1cc(Cn2c(=O)c3c(OC)c(C)cnc3n(C)c2=O)cc(OC)c1,-13,4.5%,4%,-6.0,-2,-4,-15
Cc1ccccc1Nc1nc(N)nc(CN2CCN(c3ccccn3)CC2)n1,3,4.9%,11%,5.9,-12,-9,3
CCCc1cc(=O)n2[nH]c(NCc3c(Cl)cccc3Cl)nc2n1,0,2.4%[38.3 µM],-1%,-0.9,-1,-5,11
COc1ccc(NC(=O)CSc2cn[nH]n2)cc1OC,-4,-1.0%,10%,-1.8,-17,1,10
CC1(CCc2ccccc2)NC(=O)NC1=O (stereo not drawn),1,-0.7%,.,-2.2,2,-33,.
CCOC(=O)c1c(/N=C/c2cc([N+](=O)[O-])ccc2O)sc(C)c1C,18,2.5%,40µM*,-3.2,-7,-2,-3
Cc1nc2c(ccc3nc(NC(=O)C4CC4)sc32)s1,-4,2.0%,13%,-2.4,-6,5,0
O=C(CN(Cc1ccccc1F)S(=O)(=O)c1ccc(Cl)cc1)NCC1CCCO1 (stereo not drawn),8,3.3%,1%,-1.3,1,-1,-5
O=C(O)c1cccc(-c2csc(C(O)c3ccccc3)n2)c1 (stereo not drawn),7,1.0%,.,-4.1,8,-6,.
Cc1ccc(S(=O)(=O)NCC(=O)OCCOc2ccc(Br)cc2)cc1,3,5.7%,.,2.3,4,23,.
COC(=O)c1cc(C(=O)OCC(=O)NCc2cccs2)cc([N+](=O)[O-])c1,3,-0.4%,.,?,0,0,3
CCCc1ncc(C(O)c2cccc3ccccc23)n1C (stereo not drawn),-1,-0.3%,17%,-3.1,1,3,0
O=C(CSc1nnc(CNC(=O)c2ccccc2)o1)Nc1ccc2c(c1)OCO2,-7,-1.9%,2%,-6.2,-1,-1,-5
CCN1C(=O)[C@@H]2[C@@H](c3ccc(-c4ccc(F)cc4)cc3)N3CCC[C@@]3(C(=O)OC)[C@@H]2C1=O,-14,1.3%,.,-1.8,-8,-12,?
O=C(O)COCC(=O)Nc1ccc(OCCc2ccccc2)cc1,-3,7.9%,19%,-2.3,6,-3,11
CC(NC(=O)C1CCN(S(=O)(=O)c2cnc[nH]2)CC1)c1ccccc1 (stereo not drawn),1,2.2%,6%,-1.7,8,1,3
CC(=O)c1cccc(S(=O)(=O)N2CCCC(c3nc4c(nnn4Cc4ccccc4Cl)c(=O)[nH]3)C2)c1 (stereo not drawn),5,0.0%,8%,-1.0,-19,-5,5
CC(=O)c1cccc(-c2ccnc3c2CC(C(=O)NC(C)C)O3)c1 (stereo not drawn),1,1.0%,.,-3.0,6,-11,.
COc1ccc(CC(=O)NCc2ccccc2)cc1S(=O)(=O)N1CCOCC1,5,4.6%[38.3 µM],10%,-2.3,-1,-4,10
CC1(C)CC(=O)C2=C(C1)N(c1cccc(Cl)c1)C(=O)NC2(C(F)(F)F)C(F)(F)F,-13,4.4%,6%,-4.6,9,1,5
C#CC1(NC(=O)NC(C)(C)C)CCCCC1,.,2.7%,-7%,0.3,0,3,1
Cc1nn(C)cc1S(=O)(=O)NCc1ccc2c(c1)OCO2,5,-1.2%,14%,1.3,3,1,-2
COc1ccc(/C=C\c2nc(O)c([N+](=O)[O-])c(=O)[nH]2)cc1O,-10,0.3%,10%,-3.8,?,-3,-11
Cc1cccc(C(=O)OCC(=O)N(CC(C)C)c2c(N)n(Cc3ccccc3)c(=O)[nH]c2=O)c1O,12,2.7%,.,-3.3,-4,4,21
O=C(CSc1ccccc1C(=O)O)NCc1ccccc1,4,1.6%,27%,-2.3,15,0,10
COc1ccc(Nc2cc(C(=O)NCCCN3CCN(C)CC3)c3ccccc3n2)c(OC)c1,-12,-0.4%,1%,-4.2,-12,-26,3
O=C(NCCCN1CCCCCC1)C1CC(=O)N(C2CCCC2)C1 (stereo not drawn),-12,2.6%[38.3 µM],2%,-1.3,-1,-8,8

Three compounds already listed, arranged by count of non-hydrogen atoms, ascending:
Structure,CtBP-E1A blk,PINK1 modulator,Sfp PPTase inh,D2 ag,Six1-Eya2 blk,D2 PAM,TRPV1 potentiator
COc1ccc(NC(=O)CSc2cn[nH]n2)cc1OC,-4,-1.0%,10%,-1.8,-17,1,10
CC(NC(=O)C1CCN(S(=O)(=O)c2cnc[nH]2)CC1)c1ccccc1 (stereo not drawn),1,2.2%,6%,-1.7,8,1,3
COc1ccc(Nc2cc(C(=O)NCCCN3CCN(C)CC3)c3ccccc3n2)c(OC)c1,-12,-0.4%,1%,-4.2,-12,-26,3

Later entries.
Structure,CtBP-E1A blk,PINK1 modulator,Sfp PPTase inh,D2 ag,Six1-Eya2 blk,D2 PAM,TRPV1 potentiator
CCSc1nc(-c2ccc(OC)cc2)cc(-c2ccc(OC)cc2)c1C#N,22,2.8%[38.3 µM],4%,-2.8,17,-8,3
COC(=O)c1sc(C(C)(C)C)cc1CS(=O)(=O)c1ccc(Cl)cc1,14,-0.1%,5%,-2.6,6,-6,-7
O=C(CSc1nnc2ccccn12)NNC(=O)c1ccc([N+](=O)[O-])cc1,0,1.4%,13%,4.8,3,-2,7
CCN(CC(=O)Nc1ccccc1Br)C1CCCCC1,24,16%,0%,-6.6,19,-5,-2
CCOC(=O)CCC(=O)Nc1ccc(S(=O)(=O)N2CCC(C)CC2)cc1,2,0.4%,16%,1.4,-2,0,-25
Cc1ccccc1C(=O)Nc1cc(S(=O)(=O)N2CCOCC2)ccc1N1CCN(C)CC1,1,0.9%,.,-1.9,-1,-2,-15
COc1ccc(N2C(=O)CCC(C(=O)NCCN3CCOCC3)C2c2ccc(OC)c(OC)c2)cc1 (stereo not drawn),-4,0.1%,9%,2.8,13,3,2
C=CCOc1c2ccc(C(=O)N(CC)c3ccc(OC)cc3)cc2nn1C,.,0.2%,3%,4.8,-8,6,3
CCN(CC)S(=O)(=O)c1cccc(-c2nnc(SCC(N)=O)n2N)c1,4,0.6%,16%,-0.9,4,-3,-2
COc1ccc(N2C(=O)c3ccccc3NC2c2ccc(OC)c(CN3CCOCC3)c2)cc1 (stereo not drawn),8,2.3%,8%,-6.1,-3,-15,-2
O=C(CCCn1c(SCC(=O)c2ccc(F)cc2)nc2ccccc2c1=O)NCc1ccco1,0,16µM*,-9%,-2.5,-4,-29,5
Cc1nn(CC(=O)N2CCC(N3CCCCC3)CC2)c(=O)c2c1sc1ccccc12,.,0.4%,14%,0.7,-6,-13,9
O=C(O)CC1(Cc2nc(-c3cccs3)no2)CCCC1,-7,0.8%,10%,4.2,-3,-27,-1
Cc1ccccc1S(=O)(=O)NC(=O)C1(C)CCN1C(=O)C1(c2ccccc2)CCCC1 (stereo not drawn),5,-0.2%,.,-2.1,0,3,.
Cc1cc([N+](=O)[O-])nn1CCCC(=O)Nc1c(C)n(C)n(-c2ccccc2)c1=O,6,3.1%,15%,5.0,-11,-5,-8
CCOC(=O)N1CCN(C(=O)C2CCN(CC3CCCCC3)CC2)CC1,-4,-0.2%,11%,-0.3,2,7,2
COC(=O)CCNCCSc1nnc(-c2ccco2)n1Cc1ccccc1,.,-0.2%,-24%,-5.9,0,-25,-3
O=[N+]([O-])c1cccc(S(=O)(=O)N2CCN(S(=O)(=O)N3CCOCC3)CC2)c1,7,2.4%,14%,-2.7,-1,-4,-2
COC(=O)[C@@]1(C(C)C)N=C(c2cc(OC)c(OC)c(OC)c2)[C@]2(O1)C(=O)N(C)c1ccc(Cl)cc12,0,1.4%,.,.,-4,.,.
Cn1nc(C(C)(C)C)cc1C(=O)O,.,5.0%,-1%,-6.3,5,-10,-6
O=C(Cn1cnc2c(nnn2Cc2ccccc2)c1=O)c1ccc(Cl)cc1,-22,9.5%,10%,-2.9,-2,-7,-13
Cc1cc(C(=O)COc2cccnc2[N+](=O)[O-])c(C)n1-c1ccccc1F,-5,0.4%,-5%,-1.0,-19,1,1
CN(C)c1ccc(C(C(=O)NCc2ccccc2)N(Cc2cccnc2)C(=O)c2snc(C(N)=O)c2N)cc1 (stereo not drawn),-7,0.5%,15%,11,-19,11,-15
CCCCn1c(N)c(N(CCOC)C(=O)CSCC(=O)Nc2cccc(C)c2)c(=O)[nH]c1=O,-4,0.6%,.,-1.1,5,15,0
COc1ccccc1NC(=O)COC(=O)CCC1CCCC1,5,-1.1%,.,-2.5,22,-9,.
